FGF22 binding: FGF22 (human) thermal shift binding. Q9HCT0. recombinant FGF22 thermal shift, SYPRO orange fluorescence; percent of sucrose octasulfate shift, DMSO zero. calls only at 9.99 µM. 340,000 tested, 1.5% active;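 active = melting point raised past a set limit in the mean and every replicate; inconclusive = no clear call; three in four hits are not shown here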
Target sequence (Q9HCT0 whole entry, looked up): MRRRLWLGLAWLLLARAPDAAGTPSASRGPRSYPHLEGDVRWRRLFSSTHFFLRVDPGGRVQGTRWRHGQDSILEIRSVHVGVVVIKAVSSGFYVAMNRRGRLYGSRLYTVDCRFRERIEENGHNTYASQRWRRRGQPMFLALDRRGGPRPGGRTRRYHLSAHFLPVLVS
Beta apoptosis: beta cell apoptosis inhibition | INS-1E cytokine-induced death, ATP luminescence, 48 h; percent of positive-control rescue, neutral wells zero | protection from apoptosis, % (test concentration not listed) | 300,000 tested, 0.8% active | AID 435005;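 active = all replicates at 75% or more, or half of them and the mean; inconclusive = half reach 75% but not the mean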;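 note: 0% = cytokine-treated negative control wells and 100% = positive control rescue; higher means more ATP so stronger rescue from cytokine killing; wells of about 40 µL received 100 nL stock; the first replicate is given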
UCH37 inh: inhibitors of human deubiquitinating enzyme UCH37; purified proteasome/UCH37, Ub-AMC cleavage fluorescence; inhibition, % (no concentration beside the values); 330,000 tested, 0.33% active;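 active = mean of two replicates above 20%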;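 note: 0% = compound-free wells with enzyme and 100% = wells lacking proteasome; stock transfer was 100 nL into about 20 µL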
Target sequence (Q9Y5K5 whole entry, looked up): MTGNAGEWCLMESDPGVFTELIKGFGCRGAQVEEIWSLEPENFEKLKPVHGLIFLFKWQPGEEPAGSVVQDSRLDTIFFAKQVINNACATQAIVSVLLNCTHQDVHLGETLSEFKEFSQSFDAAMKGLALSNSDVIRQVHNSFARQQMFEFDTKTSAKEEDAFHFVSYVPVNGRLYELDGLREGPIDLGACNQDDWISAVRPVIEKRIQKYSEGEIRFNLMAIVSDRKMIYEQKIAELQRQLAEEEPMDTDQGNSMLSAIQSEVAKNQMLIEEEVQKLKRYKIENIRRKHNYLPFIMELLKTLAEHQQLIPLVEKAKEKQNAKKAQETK
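system = Proteasome-associated human UCH37 deubiquitinase | amount = 0.15 nM proteasome as dispensed | medium = pH 7.4 Tris-HCl (50 mM) with ovalbumin, ATP-MgCl2, DTT | incubation = 30 min preincubation with enzyme, 25 min cleavage at room temperature | detection = AMC fluorescence 355/460 nm | read-out basis = percent inhibition | controls = no-proteasome and no-compound wells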
Bfl-1 A1 inh: inhibitors of the anti-apoptotic protein A1, read as caspase activation; MEF A1-2A-BIM cells, Caspase-Glo 3/7 luminescence, 3 h; percent of clofoctol response, vehicle zero; caspase activation, % (no concentration beside the values); 330,000 tested, 0.066% active;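 active = over half of replicate activation scores above 10%, or exactly half above 10 with the replicate mean above 10; inconclusive = replicate mean below 10 yet half the replicates above 10; inactive = over half of replicates below 10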;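 note: wells of about 30 µL received 50 nL stock; many hits fall short of the cut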
rRNA inh HTS: selective bacterial rRNA inhibition in E. coli; GFP signal change (wild-type ribosome), % (test concentration not listed); AID 720706; 350,000 tested, 1.6% active; E. coli WT GFP vs humanized-ribosome RFP mutants, fluorescence, 24 h; hits give low values; DMSO median 0, no signal -100;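 active = significant combined selectivity score with lowered wild-type GFP, culture density cut under 30%, mutant RFP and density less affected; inactive = any of these conditions unmet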; note: one replicate is shown; some compounds called inactive have numbers as strong as hits
T cruzi inh: T. cruzi replication inhibition; 300,000 tested, 1.4% active; inhibition, % (no concentration beside the values); T. cruzi beta-gal in NIH3T3, luminescence, 90 h;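 active = mean inhibition across valid replicates above about 55%, limit read from the data; inconclusive = mean below that limit but half or more replicates reach it; inactive = mean below it, under half of replicates reach it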;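 note: signal also drops with host cell toxicity which is not excluded here; 0% = plate median of DMSO wells and 100% = zero luminescence signal; higher percent means less beta-gal luminescence so fewer parasites; stock transfer was 50 nL into about 50 µL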
E coli growth: blocks Escherichia coli growth | OD600, 23 h; hits give low values | OD600 absorbance (test concentration not listed) | 330,000 tested, 0.21% active;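 active = OD600 absorbance below the run mean of sample wells minus 3.6 SD, in any replicate, cut at about 0.56 in these data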;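 note: stock transfer was 300 nL into about 60 µL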
AF4-AF9 inh: MLL-AF4/AF9 protein interaction inhibition; P42568; AlphaScreen, biotin-AF4 peptide binding to FLAG-AF9; inhibition, % at 10 µM; 350,000 tested, 0.47% active; AID 651704;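 active = every replicate reaching a set inhibition limit, whatever the replicate mean, cut at about 25% in these data; inconclusive = mean inhibition reaches that limit but some replicates miss it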;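 note: 0% = plate neutral control median and 100% = total signal loss; the record names both 10 and 1 µM as test concentration; the first replicate is given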
Target sequence (P42568 whole entry, looked up): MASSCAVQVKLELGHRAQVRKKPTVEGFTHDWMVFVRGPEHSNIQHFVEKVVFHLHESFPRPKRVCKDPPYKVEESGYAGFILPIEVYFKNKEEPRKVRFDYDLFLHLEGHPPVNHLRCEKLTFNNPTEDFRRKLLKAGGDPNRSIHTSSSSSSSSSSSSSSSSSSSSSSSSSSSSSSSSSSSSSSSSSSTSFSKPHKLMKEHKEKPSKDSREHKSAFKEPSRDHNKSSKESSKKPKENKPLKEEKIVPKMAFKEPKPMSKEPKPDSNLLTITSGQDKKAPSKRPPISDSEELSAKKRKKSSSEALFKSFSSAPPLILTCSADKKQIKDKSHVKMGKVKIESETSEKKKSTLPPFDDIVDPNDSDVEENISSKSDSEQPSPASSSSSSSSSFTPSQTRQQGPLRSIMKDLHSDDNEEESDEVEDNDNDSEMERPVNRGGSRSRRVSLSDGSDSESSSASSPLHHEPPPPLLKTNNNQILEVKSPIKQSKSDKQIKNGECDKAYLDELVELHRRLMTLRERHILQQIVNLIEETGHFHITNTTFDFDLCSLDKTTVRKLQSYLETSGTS
rRNA inh HTS OD600: further read-out of rRNA inh HTS, marked with its call; OD600 change, %; measured here: OD600 growth;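 optical density of the mix in the first replicate; 0 = DMSO median and -100 = no signal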
rRNA inh HTS RFP: second read-out of rRNA inh HTS, no call of its own (marks repeat the call); RFP signal change, %; measured here: RFP humanized mutant strains;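 first replicate; 0 = DMSO median and -100 = no signal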
Numbers without * were called inactive; i = inactive; u = inconclusive; x = not tested or not shown. The list is partial (hit frequency here may not be typical).

canonical_smiles	FGF22 binding	Beta apoptosis	UCH37 inh	Bfl-1 A1 inh	rRNA inh HTS	rRNA inh HTS OD600	rRNA inh HTS RFP	T cruzi inh	E coli growth	AF4-AF9 inh
COC(=O)c1ccc(NC(=O)CSc2nc3cccnc3n2C)cc1	x	1	1.8	u	x	x	x	9	0.69	x
CCc1ccc(NC(=S)Nc2cccc3cnccc23)cc1	i	2	-0.2	1.3	-24	-36	1.8	4	0.67	2.3
Cc1ccc(SCC(=O)OCC(=O)N(CCC#N)c2ccccc2)cc1C	i	0	1.2	-0.1	-5	-6	0.5	-1	0.71	-0.2
COc1cc2c(cc1OC)C(C)N(C(=S)Nc1ccccc1)CC2 (centres undefined)	x	-2	1.7	-0.2	x	x	x	0	0.68	x
Cc1cc(-c2ccc(S(=O)(=O)N3CCCCC3)s2)on1	i	1	2.2	0.2	5	3	-0.3	4	0.72	-14
O=C(Nc1ccccc1)N1CCn2c1nc1ccccc12	x	0	1.6	0.3	x	x	x	7	0.72	x
COc1ccccc1OCCCOc1ccc(/C=C2\SC(=O)NC2=O)cc1OC	i	24	5.5	-0.6	-26	-24	2.7	30	0.67	-5.0
COc1ccc(C(=O)CSc2nnc(NC(=O)C3CC(=O)N(c4ccccc4)C3)s2)cc1 (centres undefined)	i	0	4.5	0.4	11	17	2.9	6	0.71	3.3
CC(=O)Nc1cccc(NC(=O)C2CCCN2C(=O)Nc2cccc(C)c2)c1 (centres undefined)	x	-3	2.6	1.7	x	x	x	-13	0.66	x
COc1ccc(NC(=O)C2CCCN2S(=O)(=O)c2ccc3c(c2)CCC(=O)N3)c(OC)c1 (centres undefined)	i	-1	5.8	-0.9	-1	-1	0.9	x	0.7	4.9
Cc1cccc(-c2nc(NCCCN(C)C)c3ccccc3n2)c1	i	2	2.6	0.2	7	7	-1.3	24	0.66	13
O=C(/C=C/c1ccc(Cl)c([N+](=O)[O-])c1)Nc1ccc(N2CCCC2)cc1	i	5	5.5	0.4	-9	16	2.1	10	0.67	1.2
CC(=O)Nc1cc2c3c(c1)CCC(=O)N3CCC2	i	-4	0.0	-0.4	1	6	0.1	-19	0.68	-6.8
Cc1cc(C)nc(NC(=O)c2csnn2)c1	x	-1	4.1	0.1	14	14	-0.4	-26	0.7	-2.9
O=C(COc1ccc2ccc(=O)oc2c1)N1CCN(c2ccc(F)cc2)CC1	i	x	-2.3	-0.2	-5	-14	1.2	-4	0.67	-0.2
O=C(NCCC1=CCCCC1)c1cccc2c1C(=O)N(C1CCCCC1)C2	i	-4	7.3	0.6	5	6	0.7	27	0.68	1.1
N/C(=N\OC(=O)c1ccc(F)cc1)c1ccc(Br)cc1	i	1	-7.5	-1.4	19	14	1.6	7	0.69	-2.3
c1cncc(Nc2nc(-c3cccs3)cs2)c1	i	-18	-1.1	-0.9	-6	-1	-5.9	21	0.67	1.9
Cc1cc(C)cc(C(=O)NC(CC(N)=O)c2ccc(N3CCN(c4ccccn4)CC3)c([N+](=O)[O-])c2)c1 (centres undefined)	i	-7	-0.5	-0.6	-2	4	-6.7	4	0.68	0.9
O=C(O)/C=C/c1coc2ccc(F)cc2c1=O	x	-4	2.1	-0.2	x	x	x	-4	0.68	x
COc1cc(/C=N/NC(=S)NCCc2ccccc2)cc(OC)c1OC	i	2	x	0.6	-12	-35	-1.1	6	x	1.6
C/C=C(\C)C(=O)Nc1cccc(C2=NOC3(C2)C[C@@H](C(N)=O)N(C(=O)c2cc([N+](=O)[O-])cc([N+](=O)[O-])c2C)C3)c1 (some centres undefined)	i	2	-0.2	-0.3	-2	13	-0.5	-1	x	0.1
CCCn1c(SCC(=O)NCc2ccccc2Cl)n[nH]c1=O	i	-2	-1.5	0.6	12	16	-0.1	-7	0.64	-1.1
CCC1CCCCN1C(=O)Cn1c(=O)n(CCCC(=O)NCc2ccco2)c(=O)c2sccc21 (centres undefined)	x	-13	4.9	-0.4	4	9	0.4	-1	0.67	-0.6
O=c1oc2ccccc2cc1N1CCOCC1	i	1	2.7	-0.2	11	1	0.5	-5	0.67	-0.1

Complete entries, quoted from the list. Values in the order: FGF22 binding | Beta apoptosis | UCH37 inh | Bfl-1 A1 inh | rRNA inh HTS | rRNA inh HTS OD600 | rRNA inh HTS RFP | T cruzi inh | E coli growth | AF4-AF9 inh
Results for O=C(Nc1ccccc1)N1CCn2c1nc1ccccc12 = x | 0 | 1.6 | 0.3 | x | x | x | 7 | 0.72 | x
Results for CC(=O)Nc1cc2c3c(c1)CCC(=O)N3CCC2 = i | -4 | 0.0 | -0.4 | 1 | 6 | 0.1 | -19 | 0.68 | -6.8
Results for COc1ccc(NC(=O)C2CCCN2S(=O)(=O)c2ccc3c(c2)CCC(=O)N3)c(OC)c1 (centres undefined) = i | -1 | 5.8 | -0.9 | -1 | -1 | 0.9 | x | 0.7 | 4.9
Results for CC(=O)Nc1cccc(NC(=O)C2CCCN2C(=O)Nc2cccc(C)c2)c1 (centres undefined) = x | -3 | 2.6 | 1.7 | x | x | x | -13 | 0.66 | x

Next part
canonical_smiles	FGF22 binding	Beta apoptosis	UCH37 inh	Bfl-1 A1 inh	rRNA inh HTS	rRNA inh HTS OD600	rRNA inh HTS RFP	T cruzi inh	E coli growth	AF4-AF9 inh
CCC(C(=O)NCc1ccc(F)cc1)N(Cc1cccs1)C(=O)c1snc(C(N)=O)c1N (centres undefined)	x	-3	-26	0.1	2	-4	2.2	5	0.72	3.8
Cc1nc([N+](=O)[O-])c(N2CCN(Cc3ccccc3)CC2)n1Cc1ccccc1	x	-3	5.5	-0.3	x	x	x	43	0.69	x
O=C(CCOc1ccccc1)N1CCN(c2ccc(O)cc2)CC1	i	-2	5.0	1.3	-9	-7	-1.1	50	0.7	-1.4
Cc1ccc(N=CC2=C(O)CC(c3ccccc3Cl)CC2=O)cc1 (centres undefined)	i	-18	5.1	-0.9	11	-2	0.3	-11	0.63	x
COc1ccc(C(=O)N2CCN(c3ccccn3)CC2)cc1	x	2	0.6	0.5	x	x	x	0	0.67	x
Cc1ccc(S(=O)(=O)NCC(=O)OCC(=O)N2CC(=O)Nc3ccccc32)cc1	i	-6	2.4	-0.5	x	x	x	x	0.72	-6.1
COc1cc(OC)nc(NC(=O)CSc2nnc(-c3ccccc3)n2C2CCCCC2)n1	x	1	1.6	0.4	x	x	x	-1	0.72	x
CCCCc1c(O)nc(SCC(=O)Nc2ccc3c(c2)CCC3)[nH]c1=O	x	-7	11	0.4	x	x	x	-8	0.72	x
COc1ccc(OC)c(S(=O)(=O)N(C(C)=O)c2ccc3oc(=O)sc3c2)c1	i	0	-0.7	-1.1	30	18	1.0	-3	0.74	-3.6
COc1ccc(SC[C@H](Cc2ccccc2)N2CC[C@@H](O)CCC2=O)cc1	i	-6	-0.9	-0.8	3	12	1.5	x	x	-1.1
Cc1nc(SCC(=O)N2CCN(c3ccccn3)CC2)c(C#N)c(C)c1C	i	-7	2.9	0.0	x	x	x	x	0.68	-3.7
C=CCNC(=S)NNC(=O)c1cccn(Cc2ccc(Cl)cc2Cl)c1=O	x	-6	2.8	0.3	-8	-7	-0.1	-4	0.7	x
COc1ccc(CCNC(=O)COC(=O)c2cnc(C)cn2)cc1OC	x	-1	7.3	0.4	x	x	x	-12	0.69	x
Cc1cccc(NC(=O)Cn2c(O)c(N=NC(=O)c3ccccc3O)c3ccccc32)c1	i	0	13	0.2	0	5	-4.3	0	0.73	-12
CCN(CC(=O)N1CCC(C(N)=O)CC1)S(=O)(=O)c1ccc(Cl)cc1	i	-4	3.1	0.3	4	4	-1.6	16	0.71	-0.3
CC(=O)NC(=O)NC1OC(=O)C(Cl)=C1Cl (centres undefined)	x	-20	4.9	0.5	x	x	x	-2	0.72	x
CCc1ccc(C(=O)NNc2ccccc2F)cc1	i	-1	2.4	0.3	x	x	x	-10	0.69	-0.7
Cc1cc(C(=O)NCCN2CCN(c3cccc(Cl)c3)CC2)n(-c2ccccc2)n1	i	x	2.4	1.4	-19	-47	0.8	x	0.67	1.5
COc1cc2c(cc1OC)-c1cc(Nc3ccccc3Br)nc(=O)n1CC2	i	3	-66	1.9	-18	-3	8.7	7	0.66	-3.2
S=c1[nH]nc(-c2ccco2)n1-c1ccc(Cl)cc1	x	0	5.3	0.8	-7	-11	-0.7	-1	0.69	1.1
COc1ccc(-c2nnc(SCc3cc(C)ccc3C)n2N)cc1	x	2	5.1	0.2	-2	-2	0.2	9	0.71	x
C=C1[C@H](C)CN(S(=O)(=O)C(C)(C)C)[C@H]1CCO	i	x	2.3	x	16	6	-0.6	x	0.68	-0.3
COC(=O)CCC(=O)NNC(=O)c1ccc(Br)cc1	x	-2	0.3	0.8	x	x	x	-11	0.7	x
CCOC(=O)C1=C(O)C(=O)N(c2ccc(S(N)(=O)=O)cc2)C1c1ccc([N+](=O)[O-])cc1 (centres undefined)	i	-1	5.6	-0.2	3	4	-3.7	-1	0.69	7.0
O=c1cc(CSc2n[nH]c(=O)n2C2CC2)c2ccc(O)cc2o1	i	7	-15	0.3	4	-1	0.6	-25	0.71	-1.6

(next part)
canonical_smiles	FGF22 binding	Beta apoptosis	UCH37 inh	Bfl-1 A1 inh	rRNA inh HTS	rRNA inh HTS OD600	rRNA inh HTS RFP	T cruzi inh	E coli growth	AF4-AF9 inh
CCN(CC)CCn1c(=S)[nH]c2ccc(Br)cc2c1=O	i	-1	4.2	0.2	-4	2	-0.1	-2	0.7	-1.0
Cc1cc(Oc2ccc(=O)n(C)n2)nc(=S)[nH]1	x	-4	5.1	-0.4	x	x	x	-26	0.74	x
Cc1cc(N2CCN(S(=O)(=O)c3ccccc3)CC2)c2ccccc2n1	x	0	5.1	-0.2	x	x	x	9	0.72	x
O=C(CN1C(=O)c2ccccc2S1(=O)=O)c1ccccc1F	i	x	0.3	2.0	18	13	4.1	-7	0.73	-2.0
O=C(CCCOc1ccccc1)NNC(=O)c1ccncc1	x	-1	1.8	0.8	10	14	0.6	x	0.68	-0.9
COC(=O)COc1cccc(NC(=O)c2cccs2)c1	x	-3	0.9	-0.8	x	x	x	-14	0.74	x
COc1ccc(O)c(CN2CCN(CCCc3ccccc3)C(CCO)C2)c1 (centres undefined)	i	x	2.0	0.8	4	11	-3.7	-3	0.67	8.3
Cc1cc(-c2ccccc2)nc(N/N=C/c2ccc(O)cc2O)n1	i	39	x	-1.1	-22	-54	25	-4	x	20
COc1cccc(CN2CC(C(=O)NCc3cccc(Cl)c3)CCC2=O)c1 (centres undefined)	i	x	3.2	x	0	1	0.8	-7	0.69	-2.3
CCn1c(-c2ccccc2Cl)nn(CC(=O)Nc2ccccc2OC)c1=S	x	4	0.2	0.1	-21*	-15*	-0.8*	-11	0.7	x
O=c1cc(O)c2ccccc2[nH]1	i	-2	0.8	-0.2	9	8	2.0	1	0.68	-8.7
